Source: PubChem
Calb FLC: C. albicans growth inhibition with fluconazole, primary screen, CaCi-2 strain, Alamar Blue fluorescence | AID 1979, 2009 | 300,000 tested, 0.57% active | C. albicans CaCi-2 (fluconazole-resistant clinical isolate) + fluconazole, 48 h | growth inhibition, % (no concentration beside the values);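 active = most replicates above 75%; inconclusive = exactly half above 75%; inactive = most below 75%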;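 also: all wells also contain fluconazole at 8 µg/ml as a sub-toxic cotreatment; 0% = median of DMSO wells and 100% = median of geldanamycin control wells; wells of about 8 µL received 7.5 nL stock; the first replicate is given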
HNF4A DNA FP: change in binding of human HNF4A to DNA, primary screen, biochemical, fluorescence polarization, FITC-DNA | Hepatocyte nuclear factor 4-alpha (Homo sapiens), P41235 | 1 h | activity change, % at 10 µM | 360,000 tested, 0.3% active | AID 1224865, 2016; in the data active = activity change above about 30%, passing the limit was not always enough;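 also: controls were the assay level and a saturating level of protein; the project sought stronger binding though the title names inhibitors; some compounds called inactive have numbers as strong as hits; positive values seem to mean higher polarization but the record does not say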
Target sequence (P41235 whole entry, looked up): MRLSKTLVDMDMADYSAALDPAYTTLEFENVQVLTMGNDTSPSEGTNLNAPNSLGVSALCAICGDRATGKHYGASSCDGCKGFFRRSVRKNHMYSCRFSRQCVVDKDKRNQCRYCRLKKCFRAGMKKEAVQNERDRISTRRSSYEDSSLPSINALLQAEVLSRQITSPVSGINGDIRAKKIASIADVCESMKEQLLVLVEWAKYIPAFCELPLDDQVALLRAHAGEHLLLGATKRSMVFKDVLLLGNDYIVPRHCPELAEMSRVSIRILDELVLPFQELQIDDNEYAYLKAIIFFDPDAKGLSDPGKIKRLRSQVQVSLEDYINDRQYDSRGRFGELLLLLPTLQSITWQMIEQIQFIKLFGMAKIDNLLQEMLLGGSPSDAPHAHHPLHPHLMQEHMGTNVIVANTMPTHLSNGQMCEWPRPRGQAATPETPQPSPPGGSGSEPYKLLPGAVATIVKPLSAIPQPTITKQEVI
LANA-H2B inh: blockers of LANA interaction with H2A/H2B – biochemical, FP readout, HTS, primary screen; Protein LANA1 (Human herpesvirus 8 type P (isolate GK18)), Q9QR71; cell-free LANA-H2A/H2B peptide, fluorescence polarization; 320,000 tested, 0.6% active; inhibition, % (concentration not given with the values); in the data active = inhibition mostly above about 10%, no sharp cut-off; inactive = mostly below about 6.7%;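 also: stock transfer was 7.5 nL into about 10 µL; 0% = median of vehicle wells and 100% = median of positive control wells; one replicate is shown; the record names a cut of 25% in any replicate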
Beta2AR agonist: beta2AR agonists driving receptor internalization, primary screen, cell-based, FAP fluorogen, flow cytometry. 340,000 tested, 0.43% active. response, % (test concentration not listed). Beta-2 adrenergic receptor (Homo sapiens), P07550. Am2.2-beta2AR cells; reference of the scale not given here;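 active = response above a set limit, near 3 SD of response in nonfluorescent compounds, cut at about 42% in these data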;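 also: stock transfer was 100 nL into about 11 µL; a reference agonist was the positive control; negative values mostly stem from fluorescent compounds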
Target sequence (P07550 whole entry, looked up): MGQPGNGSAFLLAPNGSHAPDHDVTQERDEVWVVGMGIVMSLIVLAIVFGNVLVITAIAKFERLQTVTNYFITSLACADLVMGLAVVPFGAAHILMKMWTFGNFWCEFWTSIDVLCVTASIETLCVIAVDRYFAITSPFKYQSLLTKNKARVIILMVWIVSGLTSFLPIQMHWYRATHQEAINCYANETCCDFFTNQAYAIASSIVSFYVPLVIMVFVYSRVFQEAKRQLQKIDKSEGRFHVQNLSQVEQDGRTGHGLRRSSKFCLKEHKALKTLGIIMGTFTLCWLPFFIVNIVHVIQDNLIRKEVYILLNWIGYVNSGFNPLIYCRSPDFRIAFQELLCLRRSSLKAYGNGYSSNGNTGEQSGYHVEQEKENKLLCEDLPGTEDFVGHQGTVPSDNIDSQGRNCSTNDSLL
Vif A3G: inhibitors of Vif binding to APOBEC3G peptide, primary screen, biochemical, TR-FRET, GST-Vif 1-94, biotin-A3G peptide, dose response retest (AID 1117319). Virion infectivity factor (Human immunodeficiency virus type 1 group M subtype B (isolate …. TR-FRET GST-Vif / biotin-A3G peptide binding; higher % means a stronger effect; test concentration not given here; strong numbers were not always called active. inhibition, %, or IC50 in µM where a hit was titrated. 260,000 tested, 0.57% active;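 active = above the screen mean plus three standard deviations and confirmed in dose response; inconclusive = results disagree or hit not tested in dose response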;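 also: Vif residues 1-94 fused to GST binding biotinylated APOBEC3G peptide 110-148; 0% = full assay without inhibitor and 100% = GST in place of GST-Vif; retest series ran down from 100 µM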
ALR H2O2 inh: inhibitors of human ALR sulfhydryl oxidase, primary screen, biochemical, H2O2 detection, HRP-luminol luminescence, single point | FAD-linked sulfhydryl oxidase ALR (Homo sapiens), P55789 | purified ALR, DTT oxidation | inhibition, % (concentration not given with the values) | 290,000 tested, 3.8% active;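 active = mean and each replicate at 75% or more; inconclusive = only one of the two met; inactive = neither met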;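 also: stock transfer was 7.5 nL into about 7.5 µL; 0% = neutral wells and 100% = wells with inactivated enzyme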
Target sequence (P55789 whole entry, looked up): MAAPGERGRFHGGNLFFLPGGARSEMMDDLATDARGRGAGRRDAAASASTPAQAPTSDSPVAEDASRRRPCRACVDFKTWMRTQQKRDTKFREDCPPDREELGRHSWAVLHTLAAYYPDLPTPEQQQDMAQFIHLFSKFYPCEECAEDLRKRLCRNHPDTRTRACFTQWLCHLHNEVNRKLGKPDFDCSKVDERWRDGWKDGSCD
RanGTP-Imp inh: inhibitors of RanGTP-importin-beta interaction, primary screen, biochemical, FRET, CFP-Ran, YFP-importin-beta, homogeneous; cell-free CFP-Ran/YFP-importin-beta FRET ratio; 300,000 tested, 1.1% active; inhibition, % (no concentration beside the values);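 active = most replicates above 15%; inconclusive = exactly half above 15%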;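 also: 0% = DMSO wells and 100% = Ran loaded with GDP instead of GTP; wells of about 40 µL received 100 nL stock; the first replicate is given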
* marks the source's active call; other numbers are inactive results; ? = inconclusive; . = not tested or not shown.

SMILES	Calb FLC	HNF4A DNA FP	LANA-H2B inh	Beta2AR agonist	Vif A3G	ALR H2O2 inh	RanGTP-Imp inh
CCC(=O)N(Cc1ccco1)C1CC(=O)N(c2ccccc2)C1=O (stereo not given)	0	-0.8	1.8	8	-8%	6	-2.0
O=C(c1ccc(Cl)c(F)c1F)N1CCOCC1	29	0.6	-1.8	6	1%	9	-5.1
CCn1c(SCC(=O)Nc2nc(C)cs2)nnc1-c1ccoc1C	-11	0.3	-6.0	-3	18%	.	-0.7
Cc1ccc(NC(=O)COc2coc(CN3CCc4ccccc43)cc2=O)c(C)c1	8	3.5	1.4	3	-8%	42	0.6
O=C(/C=C/c1ccc(F)cc1)NC(=S)N1CCN(Cc2ccccc2)CC1	-4	2.1	-0.4	-2	-1%	3	0.8
CC(=O)N1c2ccc(S(=O)(=O)NCC3CCC(C(=O)NCc4ccccc4)CC3)cc2CC1C (stereo not given)	3	-2.8	-3.6	0	0%	-1	2.1
O=C(Nc1ccc(N2CCOCC2)cc1)Nc1cnsn1	2	1.5	-0.7	-5	24%	15	3.2
COc1ccc(-c2c(C)oc3c(CN4CCN(CCO)CC4)c(O)ccc3c2=O)cc1OC	1	-0.6	-1.2	3	24%	1	-7.8
O=C(NCc1ccc(Cl)cc1)C1CCN(c2nnc(N3CCCC3=O)s2)CC1	-4	0.2	0.4	-3	.	-8	-4.4
Cc1oc(-c2cccs2)nc1CNC[C@H]1O[C@@H](n2cnc3c(N)ncnc32)[C@H](O)[C@@H]1O	.	-0.7	0.5	2	3%	.	.
CCOCCCNC(=S)NC1CC2CCC(C1)N2Cc1ccccc1 (stereo not given)	?	1.1	-0.8	-7	.	1	7.6
Cc1ccc(S(=O)(=O)N2CCCC2c2nc3ccccc3s2)cc1 (stereo not given)	10	-2.1	2.2	-17	-2%	-5	-5.3
O=C(c1cc2cc(F)ccc2[nH]1)N1CCN(C(=O)c2ccco2)CC1	3	-2.4	1.6	2	-7%	-6	-11
N#Cc1ccsc1NC(=O)CSc1nnnn1-c1ccc(O)cc1	-28	-8.7	1.6	7	22%	-13	3.3
CCOc1ccc(NC2OC(CO)C(O)C(O)C2O)c([N+](=O)[O-])c1 (stereo not given)	-19	-0.7	-1.8	2	.	-1	2.9
Cc1cc(CNC(=O)CC2C(=O)NCCN2Cc2ccccc2)nn1C (stereo not given)	-3	-0.7	-1.6	-5	-8%	-12	-5.1
COc1cc(S(=O)(=O)NC2CCCCC2C)ccc1-n1cnnn1 (stereo not given)	-6	-3.1	-20	6	-4%	-15	-4.1
CN1CCN(c2ccccc2NC(=O)COc2ccccc2)CC1	-6	-4.5	-2.5	-4	-5%	-8	2.4
Cc1ccc(NC(=O)c2sc3nc[nH]c(=O)c3c2C)c(C)c1	6	2.4	-0.8	0	-9%	-4	-2.9
Cc1[nH]c(N=Nc2ccccc2)nc1N=Nc1ccccc1	-3	7.1	0.3	22	.	60	-13
CSc1nc2nccc(-c3ccc(-c4ccccc4)cc3)n2n1	2	0.9	8.7	-8	-29%	.	8.3
CCC1=NN(C(=O)c2ccc(Br)cc2)C(O)(c2ccc(C)cc2)C1 (stereo not given)	24	-3.6	2.3	-4	.	13	2.4
Cc1cc(C)nc(/N=C(\N)Nc2ccc(SC(F)F)cc2)n1	-10	0.8	-2.3	-20	22%	-4	7.1
CC(C)Cn1c(C(C)C)nc([N+](=O)[O-])c1S(=O)(=O)c1ccc(F)cc1	-9	1.3	5.6	5	5%	58	4.3
Cc1ccc(NC(=O)C2CCN(S(=O)(=O)c3ccc4c(c3)OCCO4)CC2)c(O)c1	0	1.4	1.0	5	0%	-9	-0.6

Whole records, looked up by structure. Screens in order: Calb FLC, HNF4A DNA FP, LANA-H2B inh, Beta2AR agonist, Vif A3G, ALR H2O2 inh, RanGTP-Imp inh
Entry for Cc1ccc(S(=O)(=O)N2CCCC2c2nc3ccccc3s2)cc1 (stereo not given) = 10, -2.1, 2.2, -17, -2%, -5, -5.3
Entry for Cc1ccc(NC(=O)C2CCN(S(=O)(=O)c3ccc4c(c3)OCCO4)CC2)c(O)c1 = 0, 1.4, 1.0, 5, 0%, -9, -0.6
Entry for Cc1[nH]c(N=Nc2ccccc2)nc1N=Nc1ccccc1 = -3, 7.1, 0.3, 22, ., 60, -13

The results go on.
SMILES	Calb FLC	HNF4A DNA FP	LANA-H2B inh	Beta2AR agonist	Vif A3G	ALR H2O2 inh	RanGTP-Imp inh
COc1ccc(S(=O)(=O)N(C)CC(=O)NCc2cccnc2)cc1	-2	-0.1	1.2	-2	-3%	-13	0.9
CC(C)C[C@@H](CNCC(=O)[C@H](C)NC(=O)c1[nH]cnc1C(=O)N[C@@H](C)CN)NC(=O)c1nc[nH]c1C(=O)N[C@@H](CC(=O)O)C(=O)O	.	0.2	.	0	2%	.	.
Cc1ccc(O)c(C2=NNC(c3ccc(Cl)cc3)C2)c1 (stereo not given)	78*	8.3	2.7	13	.	0	0.8
COc1ccccc1OCC(=O)Nc1ccccc1C(=O)N1CCCC1	0	0.2	2.1	-20	.	0	-2.1
COc1ccc(S(=O)(=O)N2CCC(C(=O)NC3(C)CCS(=O)(=O)C3)CC2)cc1OC (stereo not given)	-7	6.1	-1.7	-1	2%	.	2.0
O=C(C1CCCN(c2ncccn2)C1)N1CCc2ccccc21 (stereo not given)	3	-1.2	-6.1	-11	2%	-6	-5.6
CCC(C(=O)NC1CCCC1)N(C(=O)c1snc(C(N)=O)c1N)c1ccc2c(c1)OCCO2 (stereo not given)	12	0.1	-1.1	-11	?	18	-5.2
COc1ccc(/C=N/NC(=O)C(C)N(c2ccc(OC)cc2)S(C)(=O)=O)cc1 (stereo not given)	27	-1.1	-8.9	2	2%	-10	1.1
Cc1ccc(NC2=NC(=S)N(CC#N)C23CCCCC3)cc1	-5	3.1	4.9	8	5%	-6	2.7
COc1cccc(NC(=O)CSc2nc3ccccc3cc2Cc2ccccc2)c1	-8	3.8	-10	-21	-7%	-15	0.4
CC(=O)NC1CCC(=O)C=C1c1ccccc1 (stereo not given)	.	7.1	.	-6	2%	.	.
Cc1ccc(NC(=S)NCCc2ccc(F)cc2)c(C)c1	-6	-1.3	-3.7	8	.	-1	-3.5
CCOC(=O)c1nn(-c2ccccc2)c2nnc(Cc3ccccc3)c(=O)n12	-1	-4.0	-0.4	2	-9%	-2	0.6
COc1cccc(NC(=S)N(Cc2ccc(C)cc2)Cc2ccccn2)c1	-13	2.0	-0.8	0	7%	7	-2.6
Oc1[nH]c2ccccc2c1N=NC(=S)NCC1CCCO1 (stereo not given)	53	-9.7	1.7	-13	.	5	-4.9
CCCCOc1ccc(C(=O)N2CCC(C)CC2)cc1	12	0.7	-2.6	-8	4%	-1	2.2
CC(C)Oc1cccc(-c2cc(C(=O)N3CCN(c4ncccn4)CC3)c3ccccc3n2)c1	41	1.5	-2.0	7	-4%	-5	?
NS(=O)(=O)c1cccc(NC(=O)CC23CC4CC(CC(Br)(C4)C2)C3)c1	0	-1.6	0.9	-4	.	-1	0.9
COc1ccc(C(O)P(=O)(OC(C)C)c2ccc(N(C)C)cc2)c(OC)c1 (stereo not given)	5	-2.7	-5.0	-5	1%	-1	4.4
O=C1CN(c2nc(-c3ccccc3)c3cc(Br)ccc3n2)c2ccccc2N1	?	.	-7.8	.	-8%	-6	-3.0
CCc1nc2ccccc2n1CC(=O)NC1CCS(=O)(=O)C1 (stereo not given)	.	1.6	-3.2	-3	0%	-14	.
N#Cc1ccc(-c2ccccc2)nc1SCCN1CCOCC1	-5	-7.7	-1.2	-8	-1%	-12	5.3
Fc1ccc(-c2nnn(Cc3ccccc3Cl)n2)cc1	-4	1.4	-6.0	-4	-3%	0	-0.7
CC(=O)N1CCc2cc(C(=O)CN3CCN(c4ccccc4F)CC3)ccc21	3	6.4	1.1	-9	4%	-1	-0.9
CN(C)CCCNC(=O)C1CCNCC1	3	3.2	3.3	-7	?	-10	1.5
SMILES	Calb FLC	HNF4A DNA FP	LANA-H2B inh	Beta2AR agonist	Vif A3G	ALR H2O2 inh	RanGTP-Imp inh
COc1ccc(C2c3ccsc3CCN2C(=O)C(C)(C)C)cc1 (stereo not given)	1	2.6	0.1	-6	?	-2	-1.3
CCC(C)[C@H](NC(=O)Nc1ccc(S(N)(=O)=O)cc1)C(=O)O (stereo not given in full)	23	-1.4	-1.4	2	1%	-4	4.7
COc1ccc(CN2CC(C(=O)NCc3ccccn3)CC2=O)cc1 (stereo not given)	.	-3.8	7.3	-2	-1%	-11	0.8
N#Cc1ccsc1NC(=O)C1CCN(C(=O)c2ccc(Cl)cc2)CC1	3	5.5	-0.1	5	-1%	-1	6.6
C=C[C@](C)(CC[C@@]1(C)C(C)CC(OC2OC(C)C(OC3OC(COC(C)=O)C(O)C(O)C3O)C(O)C2O)[C@@]2(C)C(C)=CCCC12)OC1OC(C)C(O[C@@H]2O[C@@H](C)C(O)C(O)[C@H]2O)C(O)C1O (stereo not given in full)	.	-0.7	-5.0	-1	10%	.	.
O=C(O)CC1(CC(=O)Nc2ccc(Oc3cccc(C(F)(F)F)c3)nc2)CCCC1	0	-0.6	0.0	4	1%	0	-1.1
CCOc1ccc(/C=C/C(=O)CCC(=O)O)cc1	-5	5.4	-6.4	8	-4%	38	-1.5
CC(=O)Nc1ccc(S(=O)(=O)NCc2nc(-c3cccc(C)c3)no2)cc1	-3	62*	-2.0	12	.	.	15*
Cc1[nH][nH]c(=O)c1C(c1cc([N+](=O)[O-])ccc1O)c1c(C)[nH][nH]c1=O	-25	1.4	.	15	.	13	1.6
COc1ccc(NC(=S)NNc2ccc(S(=O)(=O)Nc3ccccc3C(=O)O)cc2[N+](=O)[O-])cc1	-9	-2.1	3.0	4	.	99*	-5.0
Cc1ccc(CCNc2ccccc2)c[n+]1[O-]	-8	0.4	1.6	-1	31%	-1	1.7
CCOC(=O)N1CCC(NC(=O)c2cc(C(=O)NCc3cccc(Cl)c3)ccc2CO)CC1	1	0.0	-1.5	-10	68%	-5	-3.0
CC1(C)C(=O)Nc2ccccc2N1C(=O)COC(=O)c1ccc(Cl)c(S(=O)(=O)NCc2ccccc2)c1	0	-3.5	-0.2	19	-5%	4	-2.2
O=C(CNS(=O)(=O)c1ccc(Br)s1)N1CCC(N2CCCCC2)CC1	3	-0.6	2.2	-1	7%	-12	-2.4
N=C1CCC(=N)c2c1c(O)c1ccccc1c2O	21	-31	-1.3	14	.	63	-1.2
CCOc1cc(/C=N/NC(=O)c2cccnc2)ccc1OCC(=O)N1CCOCC1	-6	-2.3	.	4	.	.	3.7
O=C(COC(=O)CCCN1C(=O)c2ccccc2C1=O)Nc1ncc(Cl)cc1Cl	-4	-3.8	-1.0	0	16%	5	-1.1
O=C1c2ccccc2-c2c1c1ccccc1c(=O)n2-c1ccccc1	.	-4.7	.	-8	0%	.	.
COc1ccc(N(Cc2ccccc2)S(=O)(=O)c2cccc(C(=O)O)c2)cc1	0	-0.1	-0.9	2	0%	8	3.1
Cc1cc(CNC(=S)Nc2ccc(S(=O)(=O)Nc3ncccn3)cc2)nn1C	3	1.1	1.5	9	-7%	-1	5.6
CCOc1ccc(Cl)cc1S(=O)(=O)N1CCN(c2ccc(F)cc2)CC1	25	-3.3	-1.0	-3	67%	-1	?
O=C(c1ccccc1Cc1ccccc1)N1CCN(S(=O)(=O)c2ccccc2Br)CC1	-1	-1.8	-1.4	6	-11%	-8	2.2
CCOc1ccc(N(CCC#N)S(=O)(=O)c2ccc(OC)cc2)cc1	40	-2.4	-0.4	-1	7%	-6	-3.7
